T cruzi repl: inhibitors of intracellular T. cruzi growth, primary screen, luminescence, NIH3T3 host cells. T. cruzi beta-gal in NIH3T3, 90 h. inhibition, % (concentration not given with the values). actives 1.4% (n = 300,000). AID 1885, 2009;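 active means mean inhibition across valid replicates above about 55%, limit read from the data; inconclusive means mean below that limit but half or more replicates reach it; inactive means mean below it, under half of replicates reach it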;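 further: signal also drops with host cell toxicity which is not excluded here; 0% = plate median of DMSO wells and 100% = zero luminescence signal; higher percent means less beta-gal luminescence so fewer parasites; stock transfer was 50 nL into about 50 µL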
RanGTP-Impb inh: inhibitors of RanGTP-importin-beta interaction, primary screen, biochemical, FRET, CFP-Ran, YFP-importin-beta, homogeneous; AID 2216, 2009; actives 1.1% (n = 300,000); inhibition, % (no concentration beside the values); cell-free CFP-Ran/YFP-importin-beta FRET ratio; Ran GTPase (GTP-bound) - importin-beta complex;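 active means most replicates above 15%; inconclusive means exactly half above 15%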;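 further: 0% = DMSO wells and 100% = Ran loaded with GDP instead of GTP; wells of about 40 µL received 100 nL stock; the first replicate is given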
Bfl-1 A1 inh: caspase 3/7 activation in MEF A1-2A-BIM cells, primary screen, A1 inhibitor project, cell-based, luminescence, HTS. Caspase-Glo 3/7 luminescence, 3 h; percent of clofoctol response, vehicle zero. caspase activation, % (concentration not given with the values). actives 0.066% (n = 330,000);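 active means over half of replicate activation scores above 10%, or exactly half above 10 with the replicate mean above 10; inconclusive means replicate mean below 10 yet half the replicates above 10; inactive means over half of replicates below 10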;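 further: wells of about 30 µL received 50 nL stock; many hits fall short of the cut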
Beta cell apopt: inhibitors of cytokine-induced beta cell apoptosis, primary screen, luminescence | protection from apoptosis, % (no concentration beside the values) | actives 0.8% (n = 300,000) | INS-1E cytokine-induced death, ATP luminescence, 48 h; percent of positive-control rescue, neutral wells zero | AID 435005, 2010;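 active means all replicates at 75% or more, or half of them and the mean; inconclusive means half reach 75% but not the mean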;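 further: 0% = cytokine-treated negative control wells and 100% = positive control rescue; higher means more ATP so stronger rescue from cytokine killing; wells of about 40 µL received 100 nL stock; the first replicate is given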
AF4-AF9 inh: inhibitors of AF4 peptide binding to AF9, primary screen, biochemical, AlphaScreen, biotin-AF4 peptide, FLAG-AF9, single point. Protein AF-9 (Homo sapiens), P42568. inhibition, % at 10 µM. actives 0.47% (n = 350,000). AID 651704, 2012;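 active means every replicate reaching a set inhibition limit, whatever the replicate mean, cut at about 25% in these data; inconclusive means mean inhibition reaches that limit but some replicates miss it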;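 further: 0% = plate neutral control median and 100% = total signal loss; the record names both 10 and 1 µM as test concentration; the first replicate is given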
Target sequence (P42568 whole entry, looked up): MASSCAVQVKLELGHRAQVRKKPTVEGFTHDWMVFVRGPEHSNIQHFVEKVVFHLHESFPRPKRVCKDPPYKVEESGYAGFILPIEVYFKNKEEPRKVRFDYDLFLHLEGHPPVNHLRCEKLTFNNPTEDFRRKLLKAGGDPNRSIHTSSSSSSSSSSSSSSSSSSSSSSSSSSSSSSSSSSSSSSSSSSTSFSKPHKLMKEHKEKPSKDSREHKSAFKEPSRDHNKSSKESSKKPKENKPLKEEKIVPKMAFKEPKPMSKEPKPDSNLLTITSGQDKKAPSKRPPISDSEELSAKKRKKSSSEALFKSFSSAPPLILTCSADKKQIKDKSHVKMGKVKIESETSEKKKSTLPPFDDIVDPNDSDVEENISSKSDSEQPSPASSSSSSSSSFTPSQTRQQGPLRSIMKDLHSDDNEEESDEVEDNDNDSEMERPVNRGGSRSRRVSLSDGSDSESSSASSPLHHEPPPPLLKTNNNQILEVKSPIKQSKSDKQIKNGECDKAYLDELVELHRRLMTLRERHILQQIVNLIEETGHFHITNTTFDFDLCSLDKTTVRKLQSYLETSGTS
Calb FLC: C. albicans growth inhibition with fluconazole, primary screen, CaCi-2 strain, Alamar Blue fluorescence. C. albicans CaCi-2 (fluconazole-resistant clinical isolate) + fluconazole, 48 h. growth inhibition, % (concentration not given with the values). actives 0.57% (n = 300,000). AID 1979, 2009;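 active means most replicates above 75%; inconclusive means exactly half above 75%; inactive means most below 75%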;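 further: all wells also contain fluconazole at 8 µg/ml as a sub-toxic cotreatment; 0% = median of DMSO wells and 100% = median of geldanamycin control wells; wells of about 8 µL received 7.5 nL stock; the first replicate is given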
Vif A3G: inhibitors of Vif binding to APOBEC3G peptide, primary screen, biochemical, TR-FRET, GST-Vif 1-94, biotin-A3G peptide, dose response retest (AID 1117319). Virion infectivity factor (Human immunodeficiency virus type 1 group M subtype B (isolate …. TR-FRET GST-Vif / biotin-A3G peptide binding; higher % means a stronger effect; test concentration not given here; strong numbers were not always called active. one-dose inhibition, %; IC50 in µM for titrated hits. actives 0.57% (n = 260,000);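 active means above the screen mean plus three standard deviations and confirmed in dose response; inconclusive means results disagree or hit not tested in dose response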;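 further: Vif residues 1-94 fused to GST binding biotinylated APOBEC3G peptide 110-148; 0% = full assay without inhibitor and 100% = GST in place of GST-Vif; retest series ran down from 100 µM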
Ecoli rRNA inh: reduced GFP signal of wild-type E. coli, primary screen, bacterial rRNA inhibitor project, GFP/RFP fluorescence, OD600, single point; E. coli WT GFP vs humanized-ribosome RFP mutants, 24 h; stronger effect = lower value; DMSO median 0, no signal -100; GFP signal change (wild-type ribosome), % (test concentration not listed); actives 1.6% (n = 350,000); AID 720706, 2013;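 active means significant combined selectivity score with lowered wild-type GFP, culture density cut under 30%, mutant RFP and density less affected; inactive means any of these conditions unmet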; further: one replicate is shown; some compounds called inactive have numbers as strong as hits
Ecoli rRNA inh OD600: also measured in Ecoli rRNA inh; calls as there; OD600 change, %; measured here: OD600 growth;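 optical density of the mix in the first replicate; 0 = DMSO median and -100 = no signal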
Ecoli rRNA inh RFP: recorded beside Ecoli rRNA inh, whose call it bears; RFP signal change, %; measured here: RFP humanized mutant strains;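 first replicate; 0 = DMSO median and -100 = no signal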
* = called active by the depositor; u = inconclusive; x = not tested or not shown; & = joins results of further samples.

SMILES	T cruzi repl	RanGTP-Impb inh	Bfl-1 A1 inh	Beta cell apopt	AF4-AF9 inh	Calb FLC	Vif A3G	Ecoli rRNA inh	Ecoli rRNA inh OD600	Ecoli rRNA inh RFP
Fc1ccc(-n2cc(-c3ccccc3)c3c(N4CCOCC4)ncnc32)cc1	28.0	u	-0.2	-6.5	4.1	-2.7	-1.4%	-24.5*	-17.5*	-1.5*
CC(C)(C)c1cc(C(=O)NNS(=O)(=O)c2ccccc2)n[nH]1	x	-3.0	-0.3	-3.2	0.0	-0.7	7.1%	x	x	x
Cc1ccc(NC(=O)CNC(=O)Cc2cccc3ccccc23)nc1	-4.6	0.1	0.3	-5.5	-2.3	3.1	x	-2.0	-5.5	-1.1
Cc1nc2ccccc2c2nc(N)nn12	3.3	2.3	-0.3	0.0	x	1.9	5.6%	x	x	x
CCn1c(=NC(=O)CCS(=O)(=O)c2ccccc2)sc2cccc(OC)c21	u	7.0	-0.4	87.3*	-7.9	13.6	-17.3%	-27.0	-52.5	8.0
C#CC[N+]1(CC#Cc2ccccc2)CCCC1	-16.7	2.3	0.3	-2.2	x	-3.0	67.2%	x	x	x
Cc1cccc(-c2n[nH]c(=S)n2/N=C/c2cccs2)c1	-11.9	-2.5	1.1	-2.6	-0.1	60.3	3.0%	-21.6*	-9.6*	-5.7*
CCOc1ccc2[nH]c(=O)c(CN(CCc3ccccc3)C(=O)c3cnccn3)cc2c1	32.7	1.5	0.6	-2.7	x	x	2.6%	x	x	x
Cc1ccc2nc3c(cc(C(N)=S)c(=N)n3CCCOC(C)C)c(=O)n2c1	63.8*	187.6*	0.9	8.6	-1.4	14.3	16.1%	8.9	1.7	22.9
Cn1c(=O)c2c(ncn2CC(=O)NC(C)(C)C)n(C)c1=O	-12.6	1.2	0.4	-9.0	0.3	-4.4	-8.4%	-0.4	-0.5	-4.9
CC(C)(C)OC(=O)N1CCN(CCNC(=O)c2ccccc2)CC1	2.2	-3.3	1.5	3.4	-3.0	-1.9	-7.9%	10.1	13.6	-0.7
Cc1ccc(CCC(=O)Nc2ncc(Cc3cccc(Cl)c3Cl)s2)o1	-14.9	-1.5	1.6	x	-12.8	1.7	x	x	x	x
COc1cc(C(=O)Oc2cc(C)[nH]c(=O)c2[N+](=O)[O-])cc(OC)c1OC	-2.9	-1.3	1.4	x	3.0	-1.3	-10.6%	8.2	8.8	-1.6
CCNc1nc(NCC)nc(OCCOC(=O)COc2ccc(Cl)cc2Cl)n1	-11.3	-1.9	0.1	-1.1	x	-7.1	x	x	x	x
COC(=O)c1c(C(=O)OC)c(-c2ccccc2)n2c1CS(=O)C2 (stereo not given)	-10.9	-2.3	-0.1	-3.7	x	-1.3	0.5%	x	x	x
CCOc1ccccc1/C=N/N1CCN(Cc2ccccc2)CC1	4.1	7.3	1.0	-11.7	27.5*	2.4	x	5.7	3.4	-2.0
Cc1cccc(NS(=O)(=O)c2cccc(C(=O)N3CCC3)c2)c1	x	x	-0.2	3.0	-0.2	x	-9.8%	-1.9	25.6	8.0
OC1(c2ccccc2F)CCN(Cc2nnnn2Cc2ccc(F)cc2)CC1	-2.6	0.3	-0.4	-6.0	-2.8	12.3	x	-20.9*	-5.2*	0.0*
CCCCOn1c(C)c(C(=O)OCC)c2c3nonc3ccc21	16.6	4.3	1.3	3.4	x	6.7	0.6%	x	x	x
CCCn1c(Cc2ccccc2)nnc1SC(C)C(=O)NC1CC1 (stereo not given)	x	x	1.9	-5.2	1.2	x	-5.5%	3.8	12.7	-0.6

A different layout for some results above:
Fields: T cruzi repl, RanGTP-Impb inh, Bfl-1 A1 inh, Beta cell apopt, AF4-AF9 inh, Calb FLC, Vif A3G, Ecoli rRNA inh, Ecoli rRNA inh OD600, Ecoli rRNA inh RFP
CCOc1ccc2[nH]c(=O)c(CN(CCc3ccccc3)C(=O)c3cnccn3)cc2c1
  32.7, 1.5, 0.6, -2.7, x, x, 2.6%, x, x, x
C#CC[N+]1(CC#Cc2ccccc2)CCCC1
  -16.7, 2.3, 0.3, -2.2, x, -3.0, 67.2%, x, x, x
Cc1ccc(NC(=O)CNC(=O)Cc2cccc3ccccc23)nc1
  -4.6, 0.1, 0.3, -5.5, -2.3, 3.1, x, -2.0, -5.5, -1.1

(listing goes on)
SMILES	T cruzi repl	RanGTP-Impb inh	Bfl-1 A1 inh	Beta cell apopt	AF4-AF9 inh	Calb FLC	Vif A3G	Ecoli rRNA inh	Ecoli rRNA inh OD600	Ecoli rRNA inh RFP
CC1CCN(Cc2ccc(-c3nn[nH]n3)cc2)CC1	-24.2	3.2	0.6	-6.5	x	-4.9	-2.2%	x	x	x
Cc1cc2oc(=O)cc(CN3CCOCC3)c2cc1C	12.9	3.2	-0.9	-3.1	x	8.2	8.2%	x	x	x
O=C1OC(Nc2nc3ccccc3s2)c2ccccc21 (stereo not given)	-14.8	-4.5	-0.4	x	x	-1.0	-3.0%	x	x	x
CCOc1cc(/C=N/N=C2/NC(=O)C(CC(=O)O)S2)ccc1OS(=O)(=O)c1ccc(C)cc1 (stereo not given)	-0.3	2.8	x	x	0.4	10.6	-8.1%	-7.8	-15.5	-3.4
O=C(Nc1ccc(C(=O)O)cc1)/C(=C\c1ccco1)NC(=O)c1ccc(Br)o1	-8.9	1.6	0.7	3.7	-1.9	-14.9	x	17.4	-0.4	3.6
Cn1c(NC(=O)c2ccc(Br)o2)cc(=O)n(C)c1=O	-6.0	1.1	1.4	-7.1	x	12.0	7.4%&15.3%	x	x	x
COc1ccc(/C=N/NC(=O)c2cc[n+]([O-])cc2)cc1O	6.9	5.0	0.3	0.3	-1.4	-3.5	x	11.4	9.4	-0.5
CCOc1ccc(-c2nnc(NC(=O)Cc3cc(OC)c(OC)c(OC)c3)o2)cc1	5.2	2.4	-0.9	-5.2	0.3	-1.7	6.2%	9.6	9.7	-1.1
Cc1ccc(C(=O)NCCNc2ccc(Cl)cc2[N+](=O)[O-])o1	1.7	1.5	0.4	-2.6	x	10.1	-2.1%	x	x	x
COC(=O)c1sc(NC(=O)c2cc(C)on2)nc1C	-23.2	0.2	-0.9	-7.0	-1.0	1.0	x	-3.8	-5.8	-3.9
Cc1ccc(S(=O)(=O)N2CCN(S(=O)(=O)c3cccs3)CC2)cc1	-5.6	-2.6	-0.9	-4.5	-7.9	6.8	-4.8%	9.2	18.7	0.1
COc1nc(NCCc2ccc(OC)c(OC)c2)nc(NC(C)(C)CO)n1	5.9	-1.0	0.2	-4.8	x	6.1	19.4%	x	x	x
COC(=O)C1=C(C)N(CC2CCCO2)C(=O)/C1=C\c1ccc(O)cc1 (stereo not given)	-13.1	6.7	1.0	-4.4	x	-16.4	-3.1%	x	x	x
O=C(Nc1ccc(Cl)cc1)N1CCOC12CCCCC2	-5.1	-4.7	-0.6	-2.0	-1.3	-1.5	x	-33.0	-40.1	-5.0
CCn1c(SCC(=O)Nc2nccs2)nnc1-c1ccncc1	-3.9	u	-0.2	-2.8	x	-0.3	-1.3%	x	x	x
COc1cccc(NC(=O)Nc2cc(C(=O)NCC3CCCO3)ccc2N2CC3CC(C2)c2cccc(=O)n2C3)c1 (stereo not given)	6.0	1.9	0.7	0.2	-1.7	-1.5	-1.2%	-1.8	-4.4	-2.3
c1ccc2[nH]c(CN3CCOCC3)nc2c1	-23.6	0.3	1.6	-3.1	x	-14.0	-3.6%	x	x	x
Cn1c(=O)c2sccc2n2c(CCCC(=O)NCCc3ccc(S(N)(=O)=O)cc3)nnc12	-1.5	1.2	-0.2	2.9	-7.1	-6.3	x	2.8	9.9	-1.6
Cc1nn(Cc2ccccc2)c(C)c1NC(=O)CSc1n[nH]c(C)c1[N+](=O)[O-]	-2.7	2.1	0.1	2.5	x	-9.2	x	x	x	x
Cc1ccc(NS(=O)(=O)c2ccc(C(=O)NCc3cccnc3)cc2)cc1	-2.3	2.5	0.6	6.4	0.6	2.5	x	0.8	-3.2	1.6
CCCc1cc(=O)oc2cc(C)cc(OCC(=O)NCc3ccccn3)c12	1.1	-0.1	1.5	-4.9	-3.6	2.1	x	-2.4	-8.1	-4.8
Cc1oc(-c2ccc(Cl)cc2)nc1CN1CCCC(C(=O)NCc2cccnc2)C1 (stereo not given)	45.2	1.3	0.5	-1.0	x	-12.5	3.8%	x	x	x
C=CCc1cccc(CNc2ccc(Br)cc2)c1O	7.2	-45.9	0.3	-6.3	2.3	u	u	-50.9	-79.7	-13.7
COCCOC(=O)C1=C(C)Nc2ncnn2C1c1ccccc1 (stereo not given)	-4.7	-4.3	1.8	-4.1	x	-4.0	-8.6%	x	x	x
CC12CCC(C(=O)NCc3ccccc3Cl)(C(Br)C1=O)C2(C)C (stereo not given)	1.3	5.5	1.2	-0.2	x	1.6	0.2%	x	x	x
CS(=O)(=O)c1ccc2nc(NC(=O)c3cc([N+](=O)[O-])cc([N+](=O)[O-])c3)sc2c1	1.8	-0.7	-0.3	x	-6.0	-0.4	x	9.7	-1.5	0.9
CS(=O)(=O)NCCSCc1ccco1	-1.6	4.9	0.0	0.4	5.5	1.8	24.0%	7.2	-2.8	5.4
COc1ccc(N2CCN(CC(=O)Nc3nc4c(s3)CC(C)CC4)CC2)cc1 (stereo not given)	0.3	-0.7	0.6	0.2	x	-3.3	-1.5%	x	x	x
CCOc1ccc(NC(=O)NCCN2CCN(c3ccccc3F)CC2)cc1	0.8	-13.5	0.1	1.8	-0.2	-27.6	0.2%	7.6	7.9	1.3
O=c1c2ccccc2nc(SCc2cccc(F)c2)n1C1CCCC1	14.2	-3.4	-0.2	5.3	x	-12.5	x	x	x	x
Cc1nc2sc(C(c3cccs3)N3CCN(c4ccccc4)CC3)c(O)n2n1 (stereo not given)	-2.6	6.2	-0.1	4.7	-0.6	2.8	x	6.4	9.8	-0.6
Cc1ccc(NC(=O)CSc2nnc(-c3cccs3)o2)cc1S(=O)(=O)N1CCCCC1	-1.9	2.8	0.6	-0.2	2.3	-2.5	6.0%	-11.4	-7.0	5.0
Cc1ccc(CSc2nnc(NC(=O)Cn3cnc4ccccc4c3=O)s2)cc1	12.4	-0.8	0.8	4.0	-1.1	-12.2	u	-6.0	-5.4	3.1

This is a subset; rates above refer to the full screens.
